# Bioassay records from PubChem.
# H5N1 antiviral = MDCK cell protection from H5N1 avian flu; cytopathic effect, luminescence, 72 h; hits give high values; no value below 0 was filed and about half of the inactive calls have no number; reference of the scale not given here; inhibition, % at 50 µM; 0.07% of 96,000 active; AID 740, 2007; in the data active = inhibition above about 25%
# Numbers without * were called inactive; i = inactive. This is a subset; the hit share may differ from the screen's.
smiles	H5N1 antiviral
COCC(C)NC(=O)c1ccc(-n2nc(C(F)(F)F)cc2-c2cccs2)cc1 (stereo unspecified)	i
CCOCC(=O)Nc1cccc(C(=O)OCC)c1	i
CCCc1nc(SCC(=O)Nc2cc(Cl)ccc2OC)c2c(=O)n(C)c(=O)n(C)c2n1	1.9
Cc1ccc(S(=O)(=O)Nc2c(C)n(C)n(-c3ccccc3)c2=O)cc1C(=O)NCc1ccccn1	0.3
O=C1CC(c2cccnc2)c2cc3c(cc2N1)OCO3 (stereo unspecified)	i
Cc1ccccc1NC(=O)c1cnc2ccccn2c1=O	1.8
COc1ccc(N2C(=O)C(Cl)=C(N3CCCC3)C2=O)cc1	i
O=C(CCN1CCOCC1)Nc1ccc2c(c1)CCC2	i
O=c1c(/C=C(\O)c2ccccc2)nc2ccccc2n1-c1ccccc1	0.2
CCCCCCn1cnc2c(c1=O)c1nc3ccccc3nc1n2Cc1cccs1	i
CCOC(=O)N1CCN(c2ccc(C(=O)c3cccc(F)c3)cc2)CC1	1.2
O=C(N/N=C/c1ccncc1)c1nc(-c2ccccc2)n2c1CCCCC2	0.1
CCOC(=O)N1CCN(C(=O)Cn2ncc3ccccc32)CC1	1.2
CC(=O)Nc1ccc(C(=O)CSc2nc3ccccc3n2CC(=O)N2CCCC2)cc1	0.1
O=C(NCc1ccc(Cl)cc1)C1=Cc2cc(Cl)ccc2OC1	i
FC(F)(F)c1nnc2sc(-c3ccccn3)nn12	0.2
CCOc1cccc(-c2nc(C(N)=O)c3[nH]c(=O)n(-c4cccc(Cl)c4)c3n2)c1O	0.7
CCOc1ccccc1NC(=O)CSc1nc2c(c(=O)n1C)SC(C)C2 (stereo unspecified)	3.3
CCNC(=S)N/N=C/c1ccco1	4.3
C=CCn1c(=O)c2ccccc2n2c(SC(C)C(=O)Nc3nc(-c4ccccc4)cs3)nnc12 (stereo unspecified)	0.3

# Reformatted field by field: part of the list above
SMILES: O=c1c(/C=C(\O)c2ccccc2)nc2ccccc2n1-c1ccccc1
  H5N1 antiviral: 0.2
SMILES: COc1ccc(N2C(=O)C(Cl)=C(N3CCCC3)C2=O)cc1
  H5N1 antiviral: i
SMILES: CCOCC(=O)Nc1cccc(C(=O)OCC)c1
  H5N1 antiviral: i
SMILES: CCOc1cccc(-c2nc(C(N)=O)c3[nH]c(=O)n(-c4cccc(Cl)c4)c3n2)c1O
  H5N1 antiviral: 0.7

# Following part:
smiles	H5N1 antiviral
O=c1c2ccccc2nc(-c2ccc(Br)cc2)n1Cc1ccccc1	0.1
Cc1c(NC(=O)CN2C(=O)c3ccccc3C2=O)c(=O)n(-c2ccccc2)n1C	0.8
CCCS(=O)(=O)c1nnnn1-c1cccc(OC)c1	i
Cc1nn(-c2ccc(C(=O)O)cc2)c(N)c1-c1ccccc1	i
COc1ccccc1Nc1nc(-c2sc(NC(=O)c3cccc(Cl)c3)nc2C)cs1	i
Cc1cccc(C)c1NC(=O)N1CCC(n2cnc3ccccc32)CC1	i
Cc1ccc(S(=O)(=O)Nc2cc(C(C)C)c(O)cc2C)cc1	i
CCN(CC)S(=O)(=O)c1ccc(N2CCCCC2)c(C(=O)Nc2ccccc2N2CCOCC2)c1	3.0
CN(C)C(CNC(=O)c1cccs1)c1cccnc1 (stereo unspecified)	i
CCOc1ccc(NC(=O)CN(C)c2nnnn2-c2ccccc2)cc1OCC	0.0
COc1ccc(Oc2nc3ccccc3n3cccc23)cc1	2.9
Cc1cc(=O)[nH]c(Sc2c(-c3ccccc3)c3ccccc3[nH]c2=O)n1	0.3
CCc1nnc(NC(=O)CSc2nnnn2-c2cccc(C(=O)OC)c2)s1	0.1
Cc1cccc(N2C(=O)CC(=O)NC2=O)c1	i
CC(C)c1cc(C(N)=O)c(NC(=O)c2cccc(COc3ccc(Cl)cc3)c2)s1	i
O=C(c1ccc([N+](=O)[O-])cc1)N(C1=NCCCCS1)c1ccccc1	0.9
Cc1cc(=O)n2[nH]c(C)c(-c3ccc(Cl)cc3)c2n1	i
CCOC(=O)C1CCN(C(=O)Nc2ccc3oc(C)nc3c2)CC1	i
Cc1nc(Sc2cccn2C)c(C(F)(F)F)c(=O)[nH]1	i
CSc1nc(N2CCOCC2)c2ccccc2n1	1.7
COc1ccc(S(=O)(=O)N2CCOCC2)cc1C(=O)Nc1cc(C)on1	1.0
CCc1nnc(NC(=O)C2CCC2)s1	0.9
CCN1CCCC1CNC(=O)C(=O)Nc1ccccc1OC (stereo unspecified)	i
O=C(O)c1oc2ccccc2c1CSc1ccccn1	i
CSc1ccc(CNC2CN3CCC2CC3)cc1 (stereo unspecified)	i
CCOc1cc(-c2noc(-c3cccnc3)n2)ccc1OC	0.9
Cc1occc1-c1nnc(SCC(=O)Nc2ccc3c(c2)OCO3)n1CC1CCCO1 (stereo unspecified)	i
CC(=O)Nc1nc(SCCCc2ccccc2)n[nH]1	i
O=C(Nc1cc(C(F)(F)F)ccc1N1CCOCC1)c1ccc[n+]([O-])c1	i
Cn1c(CCNC(=O)OC(C)(C)C)n[nH]c1=S	i
O=C(NC1CCCCC1)c1noc2c1CCCCC2	0.3
CCOc1ccc(Cc2nc(-c3nonc3N)no2)cc1OCC	1.4
CC1(C)Cc2c(sc3nc(-c4ccccc4)n(N)c(=O)c23)CO1	0.0
COC(=O)CSc1nnc(-c2ccc(S(=O)(=O)N3CCCC3)cc2)n1C	1.0
O=C1Nc2ccccc2C(=O)C1(Cl)Cc1ccccc1 (stereo unspecified)	0.2
CCCn1nnnc1-c1cc(Cl)cc(Cl)c1	0.6
Cc1ccc(C2NC(=O)NC3=C2CCc2ccccc23)cc1 (stereo unspecified)	86*
CCCS(=O)(=O)N1CCCC(C(=O)NCCN2CCC(Cc3ccccc3)CC2)C1 (stereo unspecified)	i
O=C(Cc1ccccc1)N1CCC(c2nc(-c3ccc(F)cc3)no2)CC1	i
Cc1ccc(NC(=O)CN(C)S(=O)(=O)c2cccc3nsnc23)cc1	0.9
CCOC(=O)N1CCC(NS(=O)(=O)c2cc(Br)cnc2N)CC1	0.5
O=C(c1cccc(-c2ccc(O)cc2)c1)N1CCOCC1	i
CSc1nc2sc(-c3ccccc3)cc2c(=O)n1N	i
COc1ccc(C)cc1S(=O)(=O)N1CCC(C)CC1	i
CCOC(=O)N1CCN(C(=O)c2c(-c3ccccc3)noc2C)CC1	i
CC(O)(CS(=O)(=O)c1ccccc1)C(=O)Nc1cccc(C(F)(F)F)c1 (stereo unspecified)	i
CC(C)(C#N)NC(=O)c1ccco1	0.1
O=C(COc1cccc(C(F)(F)F)c1)NCCCN1CCCC1=O	i
c1ccc(-c2nnc3sc(CN4CCc5ccccc54)cn23)cc1	i
CCCCn1c(/N=C/c2ccc3c(c2)OCO3)nc2ccccc21	i
CCOc1ccc2[nH]c(=O)c(C(c3nnnn3CC3CCCO3)N3CCc4ccccc4C3)cc2c1 (stereo unspecified)	i
Cc1ccc(-c2noc(/C=C/c3ccccc3)n2)cc1	i
Cc1nc2cc(Nc3nnc(-c4ccccc4)c4ccccc34)ccc2n1C	0.4
Cc1ccc(S(=O)(=O)n2ccc(-c3ccc(OCc4c(F)cccc4Cl)cc3)n2)cc1	i
CSc1nnc(-c2sc3cc(C(F)(F)F)cnc3c2-c2cccnc2)n1C	1.3
Cc1cc(NC(=O)c2ccccc2)ncc1NC(=O)c1ccco1	i
CC(=O)Nc1cc(C(=O)N2CCN(C)CC2)ccc1Sc1ccc(C)cc1	0.3
Cc1c(Cl)cccc1-c1ccc(/C=N/n2cnnc2)o1	i
O=C(NCc1ccc2c(c1)OCO2)C1CC(c2cccc(Br)c2)=NO1 (stereo unspecified)	0.1
COc1ccccc1N1CCN(c2nc(N)c(C#N)c(CC#N)c2C#N)CC1	2.3

# Copied from the results shown (4 entries):
smiles	H5N1 antiviral
CCOC(=O)N1CCC(NS(=O)(=O)c2cc(Br)cnc2N)CC1	0.5
O=C(c1cccc(-c2ccc(O)cc2)c1)N1CCOCC1	i
CSc1nc2sc(-c3ccccc3)cc2c(=O)n1N	i
COc1ccc(C)cc1S(=O)(=O)N1CCC(C)CC1	i

# Later entries:
smiles	H5N1 antiviral
CCOC(=O)COc1ccc(S(=O)(=O)N2CCN(c3ccccc3F)CC2)cc1	1.9
CCOc1ccc(C(=O)NCCCN(CC)CC)cc1	i
CC(=O)NC1C(=O)Nc2c(C)cc(C)cc21 (stereo unspecified)	0.4
Cc1nc2ccc(S(=O)(=O)NCC(=O)N3CCOCC3)cc2s1	0.6
CCC(=O)Nc1ccccc1-c1nnn(CC(=O)N2c3ccccc3CC2C)n1 (stereo unspecified)	i
CC1CN(C(=O)C(C)Sc2nc3ccccc3s2)CC(C)O1 (stereo unspecified)	i
CN(C)c1ccc(CNC(=O)C2CCN(S(=O)(=O)c3ccc4c(c3)CCC(=O)N4)CC2)cc1	1.2
CCCCCc1c(C)nc(Nc2ccc(F)cc2)[nH]c1=O	i
Cc1nc(N)sc1-c1csc(Nc2ccccc2)n1	0.2
CC(=O)C(Sc1nc(N2CCOCC2)nc(N2CCOCC2)n1)C(=O)Nc1ccccc1 (stereo unspecified)	i
CCCCC(CCC(=O)Nc1ccc(C(=O)OCC)cc1)C(=O)O (stereo unspecified)	0.1
CCC(=O)Nc1ccc(C(=O)Nc2cccc(OC)c2)cc1	2.0
CCOc1ccc(N2CC(C(=O)NCCCN3CCOCC3)CC2=O)cc1 (stereo unspecified)	0.6
Cn1c(NC(=O)C2c3ccccc3Oc3ccccc32)cc(=O)n(C)c1=O	0.8
COc1cccc(NC(=O)CSc2nc3c(c(-c4ccco4)c2C#N)CCCC3)c1	i
CCCCNC(=O)COC(=O)c1cc(C)nc2ccccc12	0.2
Cc1cc(NC(=O)c2c(F)c(F)c(F)c(F)c2F)no1	0.8
NC(=O)c1cc(-c2ccccc2)sc1NC(=O)Cc1ccc(S(=O)(=O)N2CCOCC2)s1	i
CCC(=O)Nc1ccc(NC(=O)CSc2nnnn2CC)cc1C	i
COc1ccc(/C=C2\N=C3CCCCCN3C2=O)cc1OC	1.1
COc1ccc(CSc2nnnn2-c2ccccc2)cc1	2.7
CC12CCC(c3c(C(=O)Nc4nccs4)nn(-c4ccccc4)c31)C2(C)C (stereo unspecified)	i
CC(C)(C)c1ccc(-c2nc(C=O)c3ccccn23)cc1	3.4
CCCCn1c(SCc2cccnc2)nc2c1c(=O)n(C)c(=O)n2C	0.9
COc1ccc(N2CCN(C(=O)c3ccc(C(C)(C)C)cc3)CC2)cc1	i
CCCCOC(=O)C(C)Nc1n[nH]c(=O)[nH]c1=O (stereo unspecified)	i
COc1cccc(C2Nc3cc(Cl)c(S(N)(=O)=O)cc3S(=O)(=O)N2)c1 (stereo unspecified)	i
Cc1csc(NC(=O)CSc2nnc(-c3ccc(S(=O)(=O)N4CCCC4)cc3)o2)n1	i
O=C1CCCc2c1cc(C(=O)NCc1ccco1)c(=O)n2-c1ccc(Cl)cc1	9.2
O=C(Nc1ccsc1C(=O)NC1CC1)c1ccccc1	2.2
O=C(CN(c1ccc(F)cc1)S(=O)(=O)c1ccc2c(c1)OCCO2)NCc1ccccc1	0.8
Cc1ccc2nc3c(cc2c1)c(NC(=O)c1ccccn1)nn3CC(C)C	i
COCC(C)NCc1cccc(OC)c1OC (stereo unspecified)	i
Cn1c(=O)oc2cc(S(=O)(=O)NCCC(=O)N3CCc4ccccc4C3)ccc21	1.4
O=C(c1ccc(Oc2ccc(C(F)(F)F)cn2)cc1)N1CCN(c2ccccc2)CC1	0.8
COC(=O)c1ccc(COC(=O)CNC(=O)c2ccco2)cc1	0.5
O=C(N1CCN(c2cccc(Cl)c2)CC1)C1(S(=O)(=O)c2ccc(Cl)cc2)CC1	2.2
COc1ccc(-c2ccc(-c3noc(-c4ccccc4OC)n3)c(OC)n2)cc1	i
O=C(Nc1ccccc1C(=O)O)c1ccc(Br)o1	0.2
Nc1ccc2c(c1)C(=O)C(=O)c1ccccc1-2	i
CS(=O)(=O)N(CC(=O)NC1CCCCCC1)Cc1ccccc1	i
COc1ccccc1NS(=O)(=O)c1ccc2c(c1)n(C)c(=O)n2C	1.7
CCCOc1ccc(/C=C/C(=O)Nc2ccc([N+](=O)[O-])cc2C)cc1OC	0.0
CCOC(=O)/C(C(N)=NCCO)=C(/O)c1ccccc1	i
COc1ccc(OC)c(NC(=O)CSc2nnc(Cn3c(=O)sc4ccccc43)n2C)c1	0.0
O=C(Nc1nccs1)C1Cc2ccccc2CN1S(=O)(=O)c1ccc(F)cc1 (stereo unspecified)	2.2
Cc1sc2ncn(CCC(=O)O)c(=O)c2c1C	0.2
NC(=O)c1c(NC(=O)CN2CCCC2)sc2c1CCCC2	2.4
Cc1cc(=O)oc(C)c1C(=O)NCCCN1C(C)CCCC1C (stereo unspecified)	1.2
Cc1nnc(SCC(=O)NC(=O)NC(C)(C)C)n1N	7.0
C=CCNC(=O)c1ccccc1NC(=O)c1ccc(Cl)c(S(=O)(=O)Nc2cc(C)ccc2C)c1	3.6
CCCCC1C(C#N)=C(C)NC2=C1C(=O)CC(C)(C)C2 (stereo unspecified)	i
CC1CCCCN1S(=O)(=O)c1ccc(C(=O)Nc2nnc(-c3ccccc3Cl)o2)cc1 (stereo unspecified)	1.0
CCCn1c(C2CC(=O)N(c3cc(OC)ccc3OC)C2)nc2ccccc21 (stereo unspecified)	i
CC(C)c1ccc(-c2c(C#N)c(N)nc(SCC(=O)N3CCCCC3)c2C#N)cc1	0.1
N#CC(c1ccccc1)c1ccc2c(C(F)(F)F)cc(C(F)(F)F)nc2n1 (stereo unspecified)	4.8
